VDR inh: vitamin D3 receptor (human) inhibition; VDR-SRC2-3 peptide fluorescence polarization, 2 h; Potency, µM, for inactives: max response, negative = inhibition, hits mostly inhibitors; actives 0.93% (n = 400,000); P11473; active = well fitted inhibition curve with a large enough effect; inconclusive = small, poorly fitted or top-dose-only effect, or another doubt; inactive = no such curve, though single readings can be large or run the other way; also: series mostly up to about 120 µM
Target sequence (P11473 whole entry, looked up): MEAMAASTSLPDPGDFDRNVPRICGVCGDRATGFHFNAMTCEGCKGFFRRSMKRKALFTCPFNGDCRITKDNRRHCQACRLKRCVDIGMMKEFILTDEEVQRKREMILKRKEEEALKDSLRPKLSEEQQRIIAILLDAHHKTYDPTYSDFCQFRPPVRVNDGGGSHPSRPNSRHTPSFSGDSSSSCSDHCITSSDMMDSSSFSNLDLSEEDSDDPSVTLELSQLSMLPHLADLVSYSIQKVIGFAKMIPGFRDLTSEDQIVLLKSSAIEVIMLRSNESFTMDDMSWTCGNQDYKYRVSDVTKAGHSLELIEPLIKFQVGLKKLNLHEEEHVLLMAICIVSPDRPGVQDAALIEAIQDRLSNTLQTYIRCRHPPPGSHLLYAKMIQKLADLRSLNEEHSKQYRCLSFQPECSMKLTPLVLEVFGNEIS
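Reagent solutions, kept cold and dark, are dispensed first; compounds are then pinned in at 23 nl, plates briefly spun, and incubated 2 h at ambient temperature. Inhibition of VDR–SRC2-3 peptide binding is read by fluorescence polarization.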
Numbers without * were called inactive; ? = inconclusive; & = joins results of further samples; ! = not active in a repeat; [ ] = dose if it differs, or a comment. % is scaled to controls: 0 for no effect and ±100 for the full control effect; potency is read from the fitted curve at half-maximal effect.

SMILES	VDR inh
O=C(CNc1cccc(S(=O)(=O)N2CCCC2)c1)Nc1ccc(F)cc1F	-11%
COc1ccc(Nc2nc(-c3sc(C)nc3C)cs2)cc1	0%
CS(=O)(=O)NCc1csc(-c2ccccc2)n1	25%
CCn1nc(NS(=O)(=O)c2ccc(NC(C)=O)cc2)c2cc3ccccc3nc21	?
CCn1c(CN2CCC(C)CC2)nc2cc(NC(=O)c3ccccc3[N+](=O)[O-])ccc21	21%
CCc1cc2ccc(OC)cc2nc1SCC(=O)NNC(C)=O	-13%
Cc1cc(OCC(=O)Nc2ccc(C(=O)OC3CCCCC3)cc2)ccc1Cl	-2%
CN(C)C=Nc1ncc2c3ccccc3n(CCN(C)C)c2c1C#N	-4%
COCCn1c(=O)c(-c2ccc(F)cc2)nc2cnc(Nc3cccc(OC)c3)nc21	-17%
CCCCOc1ccc(C(=O)NNC(=O)c2cnccn2)cc1OC	-14%
COC(=O)c1ccc(NC(=O)CSC2=NCCN2)cc1	-2%
CC(C(=O)N1CCc2ccccc21)N1CCN(S(=O)(=O)c2cccs2)CC1 (centres undefined)	3%
CCCCc1ccc(NC(=S)N2CCC(O)CC2)cc1	4%
Cc1ccc(-n2nnc3c(SCC(=O)NCC4CCCO4)ncnc32)cc1 (centres undefined)	-5%
CCOC(=O)c1c(C)[nH]c(C)c1S(=O)(=O)N(C)CC(=O)Nc1ccccc1F	0%
Cc1c(CN2CCC(CO)(Cc3cccc(C(F)(F)F)c3)CC2)c2ccccc2n1C	-8%
CCCN1C=CC(=CC=C(C#N)C#N)C=C1	-6%
Cc1cc(C)c2c(=O)cc(CSCC(=O)Nc3nnc(C)s3)[nH]c2c1	17%
CC1Sc2ccc(C(=O)Nc3ccccc3OC(F)F)cc2NC1=O (centres undefined)	-17%
CC(=C/C(=O)O)/C(=C\c1ccc(Br)o1)C(=O)O	13%
O=C(COc1ccccc1Cl)NC(=S)Nc1ccc(CN2CCOCC2)cc1	-10%
CCOC(=O)c1c(NC(=O)COC(=O)c2cnccn2)sc(C)c1C	-14%
C=CC[C@@H](CC(=O)NCCO)C(=O)NCCOC(=O)[C@@H](CC=C)Cc1ccc(F)cc1	-7%
COc1ccccc1CC(=O)NN1C(=O)NC2(CCC(C)CC2)C1=O (centres undefined)	-22%
CCOC(=O)C1CCCN(c2cc(C)nc3cc(-c4ccc(Cl)cc4)nn23)C1 (centres undefined)	2%
CCCCn1c(N)c(N(CCOC)C(=O)C2CCCN(C(=O)c3ccc(Cl)cc3)C2)c(=O)[nH]c1=O (centres undefined)	9%
CCOC(=O)CSc1nnc(Cc2cc(=O)[nH]c(=O)[nH]2)n1-c1ccc(Cl)cc1	?
CCn1cc(/C=C(\NC(=O)c2ccc(OC)c(OC)c2)C(=O)NCCCn2ccnc2)c2ccccc21	1%
Cc1[nH]c2ccccc2c1/C=C/c1nc2ccccc2c(=O)n1-c1cccc([N+](=O)[O-])c1	5%
O=C(CN(Cc1ccccc1Cl)C(=O)CNS(=O)(=O)c1ccccc1)NCC1CCCO1 (centres undefined)	-4%
O=C(Nc1nnc(-c2ccncc2)s1)C1CCCO1 (centres undefined)	-1%
CCOC(=O)C1=C(C)OC(N)=C(C#N)C1c1cccs1 (centres undefined)	-11%
CCOC(=O)Cc1csc(NC(=O)c2c(O)c3c(n(CC(C)C)c2=O)CCCC3)n1	8%
COc1ccc(OC)c(NC(=O)Cn2c(CCC(=O)O)ccc2-c2ccccc2)c1	6%&10%
Cc1ccc(C(=O)N/C(=C\c2cn(S(=O)(=O)N(C)C)c3ccccc23)C(=O)NCCCn2ccnc2)cc1	-19%&2%
Cc1occc1C(=O)Nc1nccs1	-12%
CC(=O)N1CCN(C(=O)c2ccc3oc(CCCc4ccccc4)nc3c2)CC1	-7%
Cc1ccc(C)c(OCc2cc(C(=O)N3CCOCC3)no2)c1	?
CC(NC(=O)C1CCN(S(=O)(=O)c2ccc3c(c2)oc(=O)n3C)CC1)c1ccccc1 (centres undefined)	-30%
Cc1ccc(NC(=O)Nc2ccc3oc(C)nc3c2)cc1	-4%
COC(=O)C1CCN(Cc2cc(=O)oc3cc(C)c(Cl)cc23)CC1	-8%
CCc1cccc(N(C(=O)c2csnn2)C(C(=O)NC(C)(C)C)c2ccccn2)c1 (centres undefined)	8%
C1CCC2(CC1)OCC1(CO2)COC2(CCCCC2)OC1	2%
c1coc(-c2nc3nc4ccccc4nc3n2-c2ccc3c(c2)OCCO3)c1	7%
O=C(Nc1cccn(Cc2c(Cl)cccc2Cl)c1=O)C1CC1	-1%
CCCCC(NC(=O)CCc1c(C)c2cc3c4c(oc3c(C)c2oc1=O)CCCC4)C(=O)O (centres undefined)	6%
CCOC(=O)N1CCN(CC(O)COCc2ccc(OC)c(OC)c2)CC1 (centres undefined)	9%
Cn1cc(C(=O)NCc2ccc(Cl)cc2)c(=O)c2cc(S(=O)(=O)N3CCOCC3)ccc21	4%
Cc1cnn(C(=S)NCc2ccco2)c1	2%
CCc1nc(C)ccc1OCC(=O)NCCCN(C)C	0%
CCOC(=O)C1CCN(S(=O)(=O)c2ccc(C)c(C(=O)NC3CCCCC3)c2)CC1	13%
COc1cc(OC)nc(NC(=O)CCl)n1	-2%
COCCNC(=O)c1cnn2c(C(F)(F)F)cc(-c3ccc4c(c3)OCO4)nc12	0%
COc1ccc(CNC(=O)C2CCC(CNS(=O)(=O)c3cccc4cccnc34)CC2)cc1 (centres undefined)	1%
Nc1nc(COC(=O)C2CC(=O)N(Cc3ccccc3)C2)nc(Nc2ccccc2)n1 (centres undefined)	1%
Clc1ccccc1-c1nc(/C=N/N2CCOCC2)c2ccccn12	?
O=C(CCNS(=O)(=O)c1ccc(Br)cc1)N1CCCCCCC1	-2%
CC1=NN(c2ccc(F)cc2)C(=O)C1C(c1cccc(O)c1)c1c(C)[nH]n(-c2ccc(F)cc2)c1=O (centres undefined)	-13%
Cc1cc(C(=O)CSc2nnc(-c3ccco3)o2)c(C)n1Cc1ccco1	17%
CNC(=O)C(=O)NCC1OCCCN1S(=O)(=O)c1ccc2c(c1)OCCO2 (centres undefined)	-13%
Following part
SMILES	VDR inh
C/C=C1\COC(C(=O)NCc2ccccc2)(C(F)(F)F)C=C1C=C1CCCCC1 (centres undefined)	79µM*!
COc1ccc(N2CCN(C(=O)CN3C(=O)NC(C)(C4CC4)C3=O)CC2)cc1 (centres undefined)	3%
O=C(Nc1ccc(Br)cc1)c1ccc(F)c(S(=O)(=O)N2CCc3ccccc32)c1	-8%
Oc1ccc(-c2[nH]ncc2-c2ccc(Br)cc2)c(O)c1	-8%
CCc1ccc(C(=O)c2cc3ccc(O)cc3oc2=O)cc1	?
CCN(c1ccccc1)c1nnc(NC(=O)Nc2cccc(C(F)(F)F)c2)s1	18%
CCOc1ccc(S(=O)(=O)N2CCCCC2)cc1NS(=O)(=O)c1cccs1	15%
CCCCC(=O)Nc1ccc(C(=O)N(CC)c2ccccc2C)cc1	-2%
Cc1ccc(C2C=C(c3ccccc3)Nc3nc(N4C(=O)CCC4=O)nn32)cc1 (centres undefined)	19%
CC(=O)c1c(C)[nH]c(C(=O)OCC(=O)c2ccc3c(c2)NC(=O)CO3)c1C	-16%
Cc1ccc(C)c(OCC(=O)Nc2c(C)n(C)n(-c3ccccc3)c2=O)c1	-21%
CC(C)(C)c1ccc(C2SCC(=O)N2c2cccc(C(=O)O)c2)cc1 (centres undefined)	0%
Cc1onc(-c2ccccc2)c1C(=O)OCC(=O)N1CCC(C)CC1	-6%
O=C(NC12CC3CC(CC(C3)C1)C2)N1CCC(n2nnc3ccccc32)CC1	0%
C=CCNC(=O)c1ccc(CNS(=O)(=O)c2ccc(NC(C)=O)cc2)cc1	14%
COc1cc(C(=O)/C=C/c2cccnc2)ccc1O	-6%
CCOc1ccc(C(=O)Nc2cnn(Cc3ccc(Cl)c(Cl)c3)c2)cc1	18%
CN(C)S(=O)(=O)c1cccc(C(=O)Nc2ccccc2[N+](=O)[O-])c1	16%
COc1ccc(-c2nc3cnc(N4CCN(C)CC4)nc3n(Cc3ccc(F)cc3)c2=O)cc1	-4%
O=C(NN1C(=O)/C(=C/C=C/c2ccco2)SC1=S)c1ccncc1	52%[activator]

In the list so far, three contain a cyano group:
SMILES	VDR inh
CN(C)C=Nc1ncc2c3ccccc3n(CCN(C)C)c2c1C#N	-4%
CCCN1C=CC(=CC=C(C#N)C#N)C=C1	-6%
CCOC(=O)C1=C(C)OC(N)=C(C#N)C1c1cccs1 (centres undefined)	-11%

(cont.)
SMILES	VDR inh
CCC(Sc1nnc(-c2ccc(OC)c(OC)c2)c(-c2ccc(OC)c(OC)c2)n1)C(=O)NC1CCCC1 (centres undefined)	7%
O=C(NCCCN1CCN(c2ccccc2F)CC1)c1cc2c(s1)-c1ccccc1OC2	14%
COC(=O)CSc1nnc(NC(=O)/C=C\c2ccc3c(c2)OCO3)s1	-4%
C/C(=N\NC(=O)COc1ccccc1[N+](=O)[O-])c1cccc(NC(=O)c2ccncc2)c1	6%
CC(C)n1nc(C(=O)OCC(=O)N2CC(=O)Nc3ccccc32)c2ccccc2c1=O	-9%
CC(=O)C1[C@H](N(C)C)CC2C3CC=C4CC(O)CC[C@]4(C)C3CC[C@@]21C (some centres undefined)	0%
Cn1c(=O)c2c(nc(CN3CCN(c4ccccc4)CC3)n2Cc2ccccc2Cl)n(C)c1=O	2%
C=C(C)C1CC=C(C)/C(=N/NC(=O)c2ccc(NC(=O)CC)cc2)C1 (centres undefined)	2%
O=C(COC(=O)C1CCN(c2ccc(C(F)(F)F)cn2)CC1)NC1CCCCC1	3%
Cc1ccc(-n2nc3c(c2NC(=O)c2ccc4c(c2)OCO4)CSC3)cc1	-4%
COC(=O)c1c(NC(=O)/C=C/C(=O)O)sc(C)c1-c1ccc(C(C)C)cc1	25µM*
CCCN1CCc2c(sc(NC(=O)CCS(=O)(=O)c3ccccc3)c2C(N)=O)C1	-12%
COc1ccc(-c2cc3c(=O)n(CC(=O)N4CCCC4)ncn3n2)cc1	12%
COc1ccc(N2CCN(C(=O)Nc3ccc(Cl)cc3)CC2)cc1	4%
COc1cccc(NC(=O)COC(=O)CNS(=O)(=O)c2c(F)cccc2F)c1	-2%
COc1ccc(/C=c2\sc3nc(-c4ccccc4)c(-c4ccccc4)n3c2=O)cc1OC	-6%
CN1CCN(C(=O)Nc2ccccc2CC[N+](=O)[O-])CC1	3%
CC(=O)c1ccc(N2CC(C)(C)C2=O)cc1	0%
O=C(COC(=O)/C=C/c1cccc(F)c1)NC1CC1	14%
COc1ccccc1Nc1nc(N)nc(CN2CCC(Cc3ccccc3)CC2)n1	-10%

4 of the compounds above, with each value named.
canonical_smiles: Cn1c(=O)c2c(nc(CN3CCN(c4ccccc4)CC3)n2Cc2ccccc2Cl)n(C)c1=O
  VDR inh: 2%
canonical_smiles: C=C(C)C1CC=C(C)/C(=N/NC(=O)c2ccc(NC(=O)CC)cc2)C1 (centres undefined)
  VDR inh: 2%
canonical_smiles: O=C(COC(=O)C1CCN(c2ccc(C(F)(F)F)cn2)CC1)NC1CCCCC1
  VDR inh: 3%
canonical_smiles: Cc1ccc(-n2nc3c(c2NC(=O)c2ccc4c(c2)OCO4)CSC3)cc1
  VDR inh: -4%

The list continues.
SMILES	VDR inh
Cc1ccc(Nc2nc(N)nc(CCl)n2)cc1	-10%
O=C(NC1CCCCC1)C1CCCN(S(=O)(=O)c2cccs2)C1 (centres undefined)	12%
O=C(CCC(=O)Nc1ccc(F)cc1)N/N=C/c1ccccc1	10%
COc1ccc(S(=O)(=O)CC(=O)c2cc(C)c(O)c(C)c2)cc1	-27%
Cc1[nH]c2ccccc2c1C(=O)C(C)OC(=O)c1ccccc1NCCO (centres undefined)	-1%
Cc1ccc(S(=O)(=O)N2CCCCC2CCNC(=O)C(=O)NCc2ccccc2)cc1 (centres undefined)	-19%
O=c1c2ccccc2sn1-c1ccc(S(=O)(=O)N2CCOCC2)cc1	?
Cc1ccc(N2NC3(CCN(C(N)=O)CC3)NC2=O)cc1	-15%
CC(C)n1c(O)c(N=Nc2ccc(Cl)nn2)c2ccccc21	-5%
COc1ccc(CCn2c(C)cc3c(c2=O)C(c2ccncc2)C(C#N)=C(N)O3)cc1OC (centres undefined)	-7%
COC(=O)c1ccccc1NC(=O)CSc1nc2nc(C)cc(C)n2n1	-3%
COc1ccc(C(=O)c2cnc3ccccc3c2-c2ccccc2)cc1	-11%
CC(C)CCNC(=O)C(C)N(Cc1ccc(F)cc1)C(=O)c1ccc(CN2CCOCC2)o1 (centres undefined)	2%
Clc1ccc(Cn2nnc3ccccc32)cc1	-17%
CC(=O)c1sc(NC(=O)c2ccc(C)cc2)nc1C	-1%
Cn1c(SCC(=O)c2c(N)n(C)c(=O)n(C)c2=O)nnc1-c1ccccc1	-16%
COc1ccccc1CC(=O)NNS(=O)(=O)c1ccccc1[N+](=O)[O-]	1%
Cc1ccc(C(=O)NCc2nnc3c(C(F)(F)F)cc(Cl)cn23)o1	-10%
CCOC(=O)N1CCC(NC(=O)c2cc(S(=O)(=O)N3CCc4ccccc43)cn2C)CC1	7%
Cc1ccc(C(=O)Nc2ccc(Cc3ccncc3)cc2)cc1[N+](=O)[O-]	-9%
CCOC(=O)CN1C(=O)S/C(=C/c2ccc(N3CCCCC3)o2)C1=O	-14%
CCc1ccc(NC(=O)[C@H](Cc2ccccc2)N2Cc3ccccc3C2=O)cc1	-15%
Cc1oc(-c2ccccc2F)nc1CSCC(=O)NC1CC1	?

3 entries from above, with bars between the fields.
Compound | VDR inh
Cc1ccc(C)c(OCC(=O)Nc2c(C)n(C)n(-c3ccccc3)c2=O)c1 | -21%
CC(C)(C)c1ccc(C2SCC(=O)N2c2cccc(C(=O)O)c2)cc1 (centres undefined) | 0%
Cc1onc(-c2ccccc2)c1C(=O)OCC(=O)N1CCC(C)CC1 | -6%

Some of the compounds tested. The share of hits here may be higher or lower than overall.
